# VDR inh: Inhibitors of the vitamin D receptor (VDR): qHTS. Vitamin D3 receptor (Homo sapiens), P11473. VDR-SRC2-3 peptide fluorescence polarization, 2 h. Potency, µM, without a hit: max response, negative = inhibition, most hits filed as inhibitors. actives 0.93% (n = 400,000). AID 504847, 2011; active means well fitted inhibition curve with a large enough effect; inconclusive means small, poorly fitted or top-dose-only effect, or another doubt; inactive means no such curve, though single readings can be large or run the other way; further: series mostly up to about 120 µM
# Target sequence (P11473 whole entry, looked up): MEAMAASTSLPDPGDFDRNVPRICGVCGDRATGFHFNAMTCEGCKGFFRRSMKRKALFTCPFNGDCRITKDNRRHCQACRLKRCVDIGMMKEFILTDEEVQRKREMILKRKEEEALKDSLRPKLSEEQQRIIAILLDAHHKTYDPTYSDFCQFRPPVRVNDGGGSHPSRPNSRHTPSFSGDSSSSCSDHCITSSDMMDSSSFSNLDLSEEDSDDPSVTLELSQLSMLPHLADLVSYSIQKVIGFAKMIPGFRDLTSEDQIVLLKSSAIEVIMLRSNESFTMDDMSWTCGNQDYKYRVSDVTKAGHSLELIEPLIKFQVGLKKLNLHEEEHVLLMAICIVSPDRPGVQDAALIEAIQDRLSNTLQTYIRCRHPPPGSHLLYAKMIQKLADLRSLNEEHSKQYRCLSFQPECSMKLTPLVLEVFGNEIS
#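 After 23 nl compound addition and a short centrifugation, plates sat for 2 hours at ambient temperature; polarization of fluorescence then indicated loss of VDR binding to peptide SRC2-3.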
# Starred values were filed as active, the others as inactive; ? = inconclusive; & = joins results of further samples. On the % scale 0 is the no-effect control and ±100 the full control effect; potency means the concentration at half of the fitted maximal effect. Only part of the results is shown, so the mix of outcomes need not match the whole.
molecule	VDR inh
COc1cccc(N2CC(NC(=O)c3ccc(S(=O)(=O)N4CCCCC4)cc3)CC2=O)c1 (stereo not drawn)	18.9%
COCCn1c(SCC(=O)c2c[nH]c3ccccc23)nc2cc(C(=O)NC(C)C)ccc2c1=O	-12.5%
C/C(=N\NS(=O)(=O)c1ccc(Br)cc1)c1ccc2c(c1)OCO2	12.4%
COc1cc(/C=N/NC(=O)c2cccnc2)ccc1OCC(=O)Nc1ccccc1Cl	-0.4%
O=C(CSc1ncnc2c1nnn2Cc1ccccc1)NC1CCCCC1	-7.1%
Cc1nn(-c2nccs2)c2c1C(=O)CC(C)(C)C2Br (stereo not drawn)	-23.5%
CCOC(=O)c1ccc(N(CCC2CO2)S(=O)(=O)c2ccc(C)cc2)cc1 (stereo not drawn)	-18.1%
C=CCn1c(SCC(=O)c2[nH]c(C)c(C(=O)OCC)c2C)nc2scc(-c3ccc(OC)c(OC)c3)c2c1=O	2.0%
CCN(C(=O)CSc1nc2ccccc2n1CC(=O)N(C)C1CCCCC1)c1ccccc1	-5.9%
Cc1ccc(S(=O)(=O)N2CCN(Cc3ccsc3)CC2)cc1	-13.9%
COc1ccc(N=Nc2cc(-c3ccccc3)ccc2O)cc1	10.0%
COC(=O)/C(=C/Nc1cccc2ccccc12)[N+](=O)[O-]	-5.7%
O=C(c1ccc(NS(=O)(=O)c2ccc3[nH]c(=O)[nH]c3c2)cc1)N1CCN(c2ccccc2O)CC1	-22.6%
CCOC12NC(=O)CC(=O)N1C(c1ccccc1)=CS2 (stereo not drawn)	4.4%
O=C(Nc1ccccn1)C1(c2ccccc2)CCCC1	2.0%
O=C(NCc1ccc2c(c1)OCO2)Nc1ccc(Cl)cc1	2.6%
Cc1cccc(-c2nnc(NC(=O)c3ccco3)s2)c1	5.7%
COc1ccc2oc(C(=O)OCC(=O)N(C)Cc3ccccc3)c(C)c2c1	-0.3%
CCOC(=O)C1CCN(C(c2ccccc2OC)c2c(O)cc(C)n(CCOC)c2=O)CC1 (stereo not drawn)	-13.9%
O=C(NCc1cccc(F)c1)C1CCN(c2nn3cc(-c4ccc(F)cc4)nc3s2)CC1	8.5%
COC(=O)c1ccc(C(=O)OC)c(NC(=O)CN(c2ccccc2)S(=O)(=O)N(C)C)c1	-8.7%&7.0%
COc1cccc(NS(=O)(=O)c2ccc3[nH]c4c(c3c2)CCCCCC4)c1	-10.7%
CCN(CC)c1ccc(NC(=O)c2ccccc2)cc1S(=O)(=O)Nc1ccccc1OC	?
CCOC(=O)c1c(C)n(C)c2ccc(O)c(CN(C)C)c12	9.4%
Cc1ccc(C)c(CN2C(=O)C(=O)c3ccccc32)c1	-28.2%
CCOC(=O)CSc1nnc(-c2ccoc2C)n1-c1ccc(OCC)cc1	0.7%
COc1ccc(CC(NC(C)=O)C(=O)NC2CCN(S(=O)(=O)c3ccc(NC(C)=O)cc3)CC2)cc1 (stereo not drawn)	18.8%
O=C(O)c1cccc(NC(=O)c2ccc3c(c2)C(=O)N(Cc2ccco2)C3=O)c1	12.8%
CC1CCN(C(=O)c2ccc(N(C)S(C)(=O)=O)cc2)CC1	10.7%
COc1ccc(S(=O)(=O)n2nc(OC(=O)c3ccco3)cc2N)cc1	-4.1%
CCC(C)NC(=O)CS(=O)Cc1nc(-c2cccc(C)c2)oc1C (stereo not drawn)	-9.6%
CCN(c1ccccc1)c1cc(C)nc2nc(C)nn12	-1.1%
COc1ccc(NC(=O)NC(C)c2ccccc2)cc1 (stereo not drawn)	5.5%
O=C(NCCCc1ccccc1)C1CC(=O)N(c2ccc3c(c2)OCCO3)C1 (stereo not drawn)	-0.1%
CCCn1nc(NC(=O)c2ccco2)c2cc3ccccc3nc21	-11.1%
Cc1ccc(CNC(=O)C(=O)NCCC2CCCCN2S(=O)(=O)c2ccc(C)cc2)cc1 (stereo not drawn)	-9.9%
CCCCCc1ccc(OCCCC[n+]2cccc(C)c2)c(CCCCC)c1	-3.8%
Cc1cc(C(=O)Nc2ncc(C)s2)c2ccccc2n1	15.2%
COc1ccccc1-n1c(C)cc(SC)c(C(C)=O)c1=S	-3.9%
CCc1nc(SCC(=O)OC(C)C)c2ccccc2n1	6.2%
N#Cc1cc(Oc2ccccc2)c(-n2nnc3ccccc32)cc1C#N	0.4%
COc1c(S(=O)(=O)Nc2cccnc2)ccc(Cl)c1Cl	3.7%
CCOc1ccccc1Nc1sc(C(=O)c2ccccc2)c(N)c1S(=O)(=O)c1ccc(C)cc1	5.3%
Cn1ccc2cc(S(=O)(=O)N3CCCN(C(=O)Nc4ccc(Br)cc4)CC3)ccc21	-1.3%
O=C(CSc1ccc(-c2ccc(-n3cccn3)cc2)nn1)Nc1ccc([N+](=O)[O-])cc1	15.0%
CC(=O)c1ccc(S(=O)(=O)N(CCCO)Cc2cc3cc(C)ccc3[nH]c2=O)cc1	23.3%
CC(C)Cc1nnc(NC(=O)CCC(=O)NC2CCCCCC2)s1	3.2%
O=C(CSc1ccc2nnc(-c3ccccn3)n2n1)Nc1ccccc1F	-14.4%

# Five compounds drawn at random from those above:
molecule	VDR inh
O=C(CSc1ccc(-c2ccc(-n3cccn3)cc2)nn1)Nc1ccc([N+](=O)[O-])cc1	15.0%
N#Cc1cc(Oc2ccccc2)c(-n2nnc3ccccc32)cc1C#N	0.4%
CCCCCc1ccc(OCCCC[n+]2cccc(C)c2)c(CCCCC)c1	-3.8%
O=C(CSc1ccc2nnc(-c3ccccn3)n2n1)Nc1ccccc1F	-14.4%
CCc1nc(SCC(=O)OC(C)C)c2ccccc2n1	6.2%

# The list continues.
molecule	VDR inh
Cc1cccc(N2CCN(S(=O)(=O)c3ccc4c(c3)CCN4C(=O)CCC(=O)O)CC2C)c1 (stereo not drawn)	-5.7%
COc1cc(C(=O)NCCC(=O)NC(C)C)cc(OC)c1OC	8.9%
CCOC(=O)c1ccc(NC(=O)c2nc(SC)ncc2Cl)cc1	12.6%
CCOc1ccccc1NC(=O)c1cccc(N2C(=O)CCC2=O)c1	-9.2%
Cc1ccc(/C=[N+](\[O-])c2ccccc2C)o1	0.0%
CCOc1ccc(S(=O)(=O)NCCC(=O)N2CCCCCCC2)cc1	-13.3%
Cc1cccc(C(=O)Nc2c(C(=O)N(C)C)cnn2-c2ccccc2)c1	-3.3%
Cc1noc(NS(=O)(=O)c2ccc(NC(=O)COc3ccccc3Br)cc2)c1C	1.0%
O=C(NC(=S)NCc1ccco1)c1ccc(Br)cc1	-9.3%
Cc1cccc(N(C)C(=O)CS(=O)(=O)c2cccc3nsnc23)c1	12.4%
CCOC(=O)Cn1c(=O)n(CC2CCCO2)c2nc(-c3ccc(OCC)cc3)nc(C(N)=O)c21 (stereo not drawn)	14.1%
COc1cccc(C(=O)Nc2nnc(SCC(=O)Nc3ccc(NC(C)=O)cc3)s2)c1	4.4%
CN1C=CC2=C(C#N)C(N)C(C#N)(C#N)C(c3ccccc3)C2C1 (stereo not drawn)	?
CCOc1ccc(NC(=O)c2ccc(NC(=O)CN3C(=O)C(=O)N(CC(C)C)C3=O)cc2)cc1	-6.5%
O=C(COC(=O)c1cccc(Cl)c1)NC(=O)NCc1ccccc1	4.1%
Cn1ncc([N+](=O)[O-])c1C(=O)Nc1ccccc1	2.1%
COC(=O)C1=C(O)CSC1=Nc1ccccc1	-14.5%
CCOc1ccc(NC(=O)CN(C)S(=O)(=O)c2cnc[nH]2)cc1	1.9%&3.0%
CC(=O)N1CCCc2cc(S(=O)(=O)N3CCC(N(C)C(C)C)CC3)ccc21	15.9%
CC1CCCC(C)N1C(=O)c1cc2ncc(CCCl)cn2n1 (stereo not drawn)	2.4%
Cc1ccc(C)c(NC(=S)N/N=C/C(C)c2ccccc2)c1 (stereo not drawn)	11.5%
Cc1cccc(N(C)S(=O)(=O)c2ccc3c(c2)C(C)(C)C(=O)N3C)c1	0.8%
CC1=C(C(=O)Nc2cccc(C(F)(F)F)c2)C2(CCN(C(C)C)CC2)OC1=O	8.1%
COc1cc(OC)nc(NC(C)=O)n1	10.6%
Cc1ccc(SCc2nc3ccccc3n2CC(=O)Nc2ccccc2)cc1	-7.3%
C#Cc1ccc(CN2CCC(N3CCC(C(=O)NCc4ccccn4)CC3)CC2)cc1	3.5%
Cc1cc(O)ccc1N/C=C1\CCCC1=O	-12.8%
O=C(NNC(=O)c1csc(N2CCOCC2)n1)c1ccc(Cl)nc1	-2.7%
O=C(c1ccc(-c2ccc([N+](=O)[O-])cc2)o1)N1CCCCC1	?
COCCC(=O)N1CCC(Oc2ccc(C(=O)NC(C)CCn3cccn3)cc2)CC1 (stereo not drawn)	-16.3%
O=C(CCOc1ccccc1)Nc1ccc(S(=O)(=O)Nc2ncccn2)cc1	-14.7%
O=S(=O)(NC1CCCCC1N1CCC(O)CC1)c1ccc(Cl)cc1 (stereo not drawn)	0.3%
COc1ccc(NC(=O)Cn2cnc3ccc(S(=O)(=O)N4CCC(C)CC4)cc3c2=O)cc1Cl	?
CCCC(NC(=O)C(C)NC(=O)CO/N=C1\C=C2CCC3C4CCC(C(C)=O)[C@@]4(C)CCC3[C@@]2(C)CC1)C(=O)O (stereo partly drawn)	10.7%
Cc1cccc(N(C(=O)c2ccc(Cl)cc2)C2CS(=O)(=O)CC2OC(=O)c2ccc(Cl)cc2)c1 (stereo not drawn)	-16.2%
O=C1CC(N2CCOCC2)C(=O)N1c1ccc(Cl)cc1 (stereo not drawn)	-7.9%
COc1ccccc1C(=O)Nc1ccc(S(=O)(=O)Nc2cc(C)nc(C)n2)cc1	7.7%
COCCNC(=O)c1c[nH]c2ccc(S(=O)(=O)Nc3ccccc3F)cc2c1=O	-16.4%
COc1ccc([N+](=O)[O-])cc1NC(=O)C(C)OC(=O)C1CCCC1 (stereo not drawn)	-5.5%
CCN(CC)CCCN1C(=O)c2oc3ccccc3c(=O)c2C1c1cccc(OC)c1OC (stereo not drawn)	-0.5%
Cc1cccc2cc3c(N)c(C(=O)N4CCOCC4)sc3nc12	-0.8%
Cc1c(C(=O)NC(C)c2ccccc2)sc2ncnc(N(C)C3CCCCC3)c12 (stereo not drawn)	18.9%
Cc1ccc2cccnc2c1NC(=S)NC(=O)c1ccccc1	?
CCN(CC(=O)Nc1c(F)cccc1F)C(=O)CSc1nnc(-c2ccco2)n1CC	-6.6%
O=C(CN1CCCCCC1)NC(c1ccccc1)c1ccccc1	-12.7%
COc1cc(/C=N/Nc2ccc(C(F)(F)F)cn2)ccc1O	-6.1%
CN(C(=O)c1cccc(NC(=O)Cc2ccc(NC(=O)C3CCN(C(=O)C4CCCCC4)CC3)cc2)c1)C1CCC1	-4.9%
CCOC(=O)Cn1nc(C)c(NC(=O)COc2cccc(Cl)c2)c1C	1.5%
O=S(=O)(NCc1ccccn1)c1ccc2ccccc2c1	8.5%
O=C(c1cccs1)N(Cc1ccc(Cl)cc1)C1CCS(=O)(=O)C1 (stereo not drawn)	-0.6%
Cc1cc(NC(=O)COc2ccccc2)ccc1Cl	-8.2%
CCOCCCNC(=O)c1c[nH]c2ccc(S(=O)(=O)N(C)c3ccc(Cl)cc3F)cc2c1=O	-0.2%
Cc1ccc(C)c(S(=O)(=O)N2CCN(C(=O)CCc3nc4ccccc4c(=O)[nH]3)CC2)c1	-3.8%
Cc1ccc(C2NC(c3ccc(C)cc3)C(C)C(=O)C2C)cc1 (stereo not drawn)	-8.7%
CCNc1nc(NC(C)C)nc(N(C#N)CCOc2ccccc2)n1	3.9%
COC(=O)c1[nH]c(C)c(/C(O)=C2\C(=O)C(=O)N(CCCN3CCOCC3)C2c2ccccn2)c1C (stereo not drawn)	7.8%
COc1ccc(CCNC(=O)CSc2nnnn2-c2ccccc2OC)cc1OC	-6.9%
COCCSc1nc2c(c(=O)[nH]c(=O)n2C)n1CCCc1ccccc1	?
CN(Cc1cccc(F)c1)CC(O)COCc1ccccc1Cl (stereo not drawn)	6.3%
CC(C)=CCc1c2c(c3occ(-c4ccc(O)cc4)c(=O)c3c1O)C=CC(C)(C)O2	13.0%&23.7%

# (further entries)
molecule	VDR inh
COc1ccc(N2CCC(CNC(=S)Nc3c(C)cccc3C)C2)cc1 (stereo not drawn)	-7.7%
CN(CC(=O)NCc1ccccc1)Cc1cccc(F)c1	?
COc1cccc(NC(=O)N(CCCN2CCOCC2)C(C)c2cc3cccc(OC)c3o2)c1 (stereo not drawn)	14.5%
CCOC(=O)c1c(S(=O)(=O)N2CCC(C(=O)Nc3cccc(C)n3)CC2)c(C)n(C)c1C	4.9%
Cc1noc(C)c1COc1ccc(C(=O)OCc2nnc(-c3ccc(Cl)cc3)o2)cc1	2.5%
CC1CCCCN1C(=O)CN1C(=O)c2ccccc2S1(=O)=O (stereo not drawn)	-18.3%
Cc1ccc(NC(=O)c2sc3nc(-c4cccs4)ccc3c2N)cc1F	?
COc1ccc(S(=O)(=O)N2CCOC2CNC(=O)C(=O)NCc2ccccc2OC)cc1 (stereo not drawn)	0.5%
CC(=O)C1=C(C)N(Cc2ccco2)C(=O)N[C@@H]1c1ccccc1	-9.2%
O=C(CSc1n[nH]c(=O)n1-c1cccnc1)N1CCOCC1	2.4%
O=C(CN1CCC(C(=O)c2cccc(Cl)c2)CC1)Nc1cccc(C(=O)O)c1	1.4%
Cc1cccc(CN2CCN(Cc3cnn(-c4ccccc4F)c3)CC2CCO)n1 (stereo not drawn)	2.0%
CN(Cc1ccccc1)C(=O)C1CCN(S(=O)(=O)c2cc([N+](=O)[O-])ccc2Cl)CC1	13.2%

# Compound activity (PubChem)
